Screens deposited in PubChem by National Center for Advancing Translational Sciences (NCATS).
ClpP mod: qHTS Assay for Activators of ClpP; purified B. subtilis ClpP, FRET peptide cleavage, 20 min; ATP-dependent Clp protease proteolytic subunit (Bacillus subtilis (strain 168)), P80244; 340,000 tested, 1.9% active; Potency, µM (highest dose often 57.5 µM), inactives show top-dose activity change, negative = active; active = well fitted falling curve with a large enough effect; inconclusive = small, poorly fitted or top-dose-only effect; inactive = no such curve, though single readings can be large or run the other way; also: potency is read from the fitted curve at half-maximal effect; the source files actives as falling curves though it sought activators and does not explain the sign; nearly all actives have a fitted effect of over 65% in size; many hits overshoot -100%
Target sequence (P80244 whole entry, looked up): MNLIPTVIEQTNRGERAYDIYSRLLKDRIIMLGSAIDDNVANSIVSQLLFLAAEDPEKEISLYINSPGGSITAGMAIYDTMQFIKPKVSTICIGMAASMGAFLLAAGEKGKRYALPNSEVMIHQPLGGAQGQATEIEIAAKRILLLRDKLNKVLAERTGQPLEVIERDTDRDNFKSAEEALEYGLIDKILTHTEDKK
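FRET quenching reversal measured ClpP activation: 10 microg/mL B. subtilis ClpP at pH 8 with the FRET-FV decapeptide, read at 430 nm after 320 nm excitation. The 20-min minus 0-min signal was scaled between DMSO/no-enzyme wells and ADEP (5.8 microM final).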
D2 PAM: potentiates the human D2 dopamine receptor allosterically; P14416; DiscoveRx D2 beta-arrestin cells, luminescence, 90 min; 100% = 57 uM dopamine signal; potentiation, % (no concentration beside the values); 360,000 tested, 0.23% active; AID 624464; active = potentiation of 50% or more; inconclusive = 30% to 50%; inactive = 30% or less;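 also: compound concentration not given in the record; tested on top of an EC20 dose of dopamine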
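D2 cells co-treated with compound plus 50 nM dopamine (EC20) for 90 min at 37 deg C to detect potentiation. Beta-arrestin recruitment was read as enzyme-fragment luminescence after 1 h at ambient temperature. Full response was set by 57 uM dopamine.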
Sfp inh: inhibitors of Bacillus subtilis Sfp phosphopantetheinyl transferase. Q9F4F7. Biochemical Sfp PPTase activity, qHTS. Potency, µM, inactives show max response, negative = inhibition, hits mostly inhibitors. 310,000 tested, 3.5% active; active = well fitted inhibition curve with a large enough effect; inconclusive = small, poorly fitted or top-dose-only effect, or another doubt; inactive = no such curve, though single readings can be large or run the other way;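 also: the enzyme is Sfp with the accession as filed and its product quenches rhodamine fluorescence; potency is read from the fitted curve at half-maximal effect; 0% = enzyme reaction without inhibitor and -100% = no enzyme wells; top concentration of the series not given in the record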
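Buffer: 50 mM Hepes-Na pH 7.6, 10 mM MgCl2, 0.01% Nonidet P-40, 0.01% BSA. Enzyme 15 nM, pre-exposed to compound 15 min; substrates then added and fluorescence change tracked over 30 min.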
gsp ag: agonists of gsp mutant (McCune-Albright syndrome); gsp mutant cells, cAMP HTRF, 30 min; control for the full effect not named in the record; 340,000 tested, 0.13% active; Potency, µM (highest dose often 76.9 µM), without a hit: top-dose activation (cAMP increase), usual class: activators; active = well fitted activation curve with a large enough effect; inconclusive = small, poorly fitted or top-dose-only effect, or another doubt; inactive = no such curve, though single readings can be large or run the other way; cell line not stated here;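 also: phosphodiesterase inhibitor Ro 20-1724 added with compounds to block cAMP breakdown; potency is read from the fitted curve at half-maximal effect; nearly all actives have a fitted effect of over 60% in size; about a fifth of the inactives were tested at one dose only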
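Cells stably selected in G418 were plated at 2000/well, grown 16-24 hr, then given compounds in DMSO with the PDE inhibitor […] (300 uM solution added) for 30 min at 37C; cAMP was read by HTRF.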
TRPV1 potentiator: enhances activation of the human vanilloid receptor TRPV1 | potentiation, % at 8.33 µM | TRPV1-expressing cells, Fluo-8 calcium influx, capsaicin EC20 potentiation; host cell line not named in the record; control for the full effect not named in the record | 320,000 tested, 0.02% active; active means potentiation above 80%; inconclusive means 30% to 80%; inactive means below 30%; also: 0% is about no effect
Target sequence (Q8NER1 whole entry, looked up): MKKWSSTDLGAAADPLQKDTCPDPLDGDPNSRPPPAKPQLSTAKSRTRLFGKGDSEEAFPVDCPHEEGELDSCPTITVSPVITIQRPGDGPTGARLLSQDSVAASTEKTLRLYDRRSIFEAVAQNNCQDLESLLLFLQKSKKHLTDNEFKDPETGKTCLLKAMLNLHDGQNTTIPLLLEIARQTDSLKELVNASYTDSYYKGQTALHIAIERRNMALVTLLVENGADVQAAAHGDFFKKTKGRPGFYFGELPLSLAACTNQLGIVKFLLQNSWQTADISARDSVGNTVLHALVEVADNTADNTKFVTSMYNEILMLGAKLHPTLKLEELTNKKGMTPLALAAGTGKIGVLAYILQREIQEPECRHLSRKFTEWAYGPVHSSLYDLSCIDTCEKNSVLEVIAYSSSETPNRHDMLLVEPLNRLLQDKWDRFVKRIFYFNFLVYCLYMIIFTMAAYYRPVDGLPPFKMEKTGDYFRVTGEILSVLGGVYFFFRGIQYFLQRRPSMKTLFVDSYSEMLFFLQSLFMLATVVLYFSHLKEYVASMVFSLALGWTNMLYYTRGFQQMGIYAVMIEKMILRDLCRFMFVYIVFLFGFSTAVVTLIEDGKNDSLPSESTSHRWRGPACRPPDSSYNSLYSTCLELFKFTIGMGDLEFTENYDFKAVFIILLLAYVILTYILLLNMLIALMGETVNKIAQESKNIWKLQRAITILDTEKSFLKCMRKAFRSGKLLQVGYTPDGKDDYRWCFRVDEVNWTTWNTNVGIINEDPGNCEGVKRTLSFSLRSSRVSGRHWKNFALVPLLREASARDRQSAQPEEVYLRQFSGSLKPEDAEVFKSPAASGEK
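TRPV1-expressing cells were cultured overnight at 35.5C and loaded with Fluo-8 calcium dye for 40 to 90 min at room temperature. After a 10 s baseline, compound was added and calcium influx was read kinetically for 3 min (ex 480/em 520 nm).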
gsp antag: antagonizes gsp, the McCune-Albright syndrome mutation | gsp-mutant cells, cAMP HTRF, 30 min; control for the full effect not named in the record | Potency, µM (series often up to 76.9 µM), inactives show at the highest dose activity change, negative = inhibition, hits mostly inhibitors | 340,000 tested, 0.4% active | AID 624288; active = falling curve of any shape with a large fitted effect; inconclusive = falling curve, mostly with a smaller effect; inactive = flat or rising curve; cell line not stated here;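 also: intracellular cAMP measured with PDE inhibitor Ro 20-1724 present during compound exposure; potency is read from the fitted curve at half-maximal effect; % is scaled to controls: 0 for no effect and ±100 for the full control effect; nearly all actives have a fitted effect of over 65% in size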
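HTRF cAMP measurement after 30 min RT detection following 30 min, 37C compound treatment alongside […] (added as 300 uM solution) in G418-selected cells seeded at 2000/well and grown 16–24 h.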
Menin MLL FP FL: inhibitors of human menin-MLL interaction, wild-type MLL peptide; Fluorescence polarization, fluorescein-MLL peptide displacement from menin; FP activity change, % at 61.4 µM; 290,000 tested, under 10 active; AID 1766; inconclusive = falling polarisation curve, or a change in total fluorescence; inactive = total fluorescence flat and polarisation flat or rising; no compound was filed as active; the % refers to the polarisation; negative = inhibition;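 also: % of control where 0% means no effect; inhibitors lower the polarisation; unlabelled MLL peptide was the positive control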
Starred values were filed as active, the others as inactive; [ ] = another dose, or the depositor's remark.

Results for O=C(CSc1nc2ncc(Cl)cc2[nH]1)N(Cc1ccccc1)C1CCS(=O)(=O)C1 (stereo not given) ?
D2 PAM: 0.3; Sfp inh: 1.4%; gsp ag: 11.2%; TRPV1 potentiator: 0.4; gsp antag: -9.0%; Menin MLL FP FL: 7.6

How did CC1c2[nH]c3ccccc3c2C[C@H]2C(=O)N(CCO)CC(=O)N12 (stereo not given in full) do in these assays?
ClpP mod: -3.1%; D2 PAM: 4.3; Sfp inh: 21.1%; gsp ag: inconclusive; TRPV1 potentiator: 6.8; gsp antag: 5.8%; Menin MLL FP FL: 6.8

How did CCOc1ccc(NC(=O)c2cccc(OC(=S)N3CCOCC3)c2)cc1 do in these assays?
D2 PAM: 1.6; Sfp inh: 5.5%; gsp ag: -4.7%[15.4 µM]; TRPV1 potentiator: -16.5; gsp antag: 15.5%; Menin MLL FP FL: 0.8

How did CCOc1ccc(/C=N/n2cc(-c3ccccc3)[nH]c2=S)cc1 do in these assays?
ClpP mod: 0.4%; D2 PAM: -24.5; Sfp inh: 5.9%; gsp ag: 11.8%[15.4 µM]; TRPV1 potentiator: 2.1; gsp antag: -24.8%; Menin MLL FP FL: 8.0

Results for NC(=O)c1ccc(SCC(=O)OCC(=O)N2CCN(C(=O)c3ccco3)CC2)c([N+](=O)[O-])c1 ?
ClpP mod: 2.7%; D2 PAM: 1.7; gsp ag: -9.0%; TRPV1 potentiator: 4.6; gsp antag: 6.1%

Results for Cc1c(C(=O)O)sc2nc(CSc3ncc(C(F)(F)F)cc3Cl)[nH]c(=O)c12 ?
D2 PAM: -0.5; Sfp inh: -8.1%; gsp ag: -24.7%[15.4 µM]; TRPV1 potentiator: 26.0; gsp antag: 0.3%; Menin MLL FP FL: 18.4

What do the screens show for `O=C(Nc1cccnc1)Nc1ccccn1`?
ClpP mod: -0.5%; D2 PAM: 6.6; Sfp inh: 10.6%; gsp ag: 8.4%; TRPV1 potentiator: -5.1; gsp antag: 17.2%; Menin MLL FP FL: -0.2

How did O=C(NC1CCCCC1)c1cccnc1Sc1ccccc1Cl do in these assays?
D2 PAM: -6.1; Sfp inh: 14.4%; gsp ag: -4.0%; TRPV1 potentiator: 12.6; gsp antag: -1.1%; Menin MLL FP FL: 0.6

What do the screens show for `COc1ccc(C)cc1NC(=O)C1CCN(S(C)(=O)=O)CC1`?
ClpP mod: -0.1%; D2 PAM: -4.3; Sfp inh: 12.7%; gsp ag: 1.1%; TRPV1 potentiator: 1.4; gsp antag: 4.9%; Menin MLL FP FL: -1.3

Results for COC(=O)c1cc(C(=O)Nc2cc(C)on2)cc([N+](=O)[O-])c1 ?
ClpP mod: 1.5%; D2 PAM: -1.0; Sfp inh: 14.6%; gsp ag: -3.0%[15.4 µM]; TRPV1 potentiator: 8.3; gsp antag: 8.2%; Menin MLL FP FL: -1.0

What do the screens show for `COc1ccc2c(C)cc(SCC(=O)Nc3nsc(-c4ccc(C)cc4)n3)nc2c1`?
ClpP mod: -10.6%; D2 PAM: 1.3; Sfp inh: -3.8%; gsp ag: 2.5%; TRPV1 potentiator: inconclusive; gsp antag: -1.0%; Menin MLL FP FL: 2.2

Results for COc1ccc(Nc2cc3n(c(=O)n2)CCc2cc(OC)c(OC)cc2-3)c(C)c1 ?
ClpP mod: -4.4%; D2 PAM: -9.6; Sfp inh: 14.8%; gsp ag: inconclusive; TRPV1 potentiator: 10.3; gsp antag: 14.6%; Menin MLL FP FL: 10.3

What do the screens show for `O=c1cc(-c2ccccc2)[nH]n1-c1ccccc1`?
D2 PAM: -11.8; gsp ag: 19.6%; gsp antag: -18.4%

Results for Cc1ccc(OCCC(=O)OC(C)C(=O)Nc2ccc(Cl)cn2)cc1 (stereo not given) ?
ClpP mod: inconclusive; D2 PAM: -28.9; gsp ag: -49.8%[inhibitor]; TRPV1 potentiator: -22.4; gsp antag: -4.3%

Results for CCc1ccc(CN(C)CC(O)COc2cccc3ccccc23)cc1 (stereo not given) ?
D2 PAM: -12.4; Sfp inh: inconclusive; gsp ag: -10.4%[15.4 µM]; TRPV1 potentiator: -8.3; gsp antag: 3.0%; Menin MLL FP FL: 0.2

What do the screens show for `O=Cc1cc2cc3c(cc2nc1Cl)OCCO3`?
ClpP mod: 2.2%; D2 PAM: 1.7; Sfp inh: 2.1%; gsp ag: -7.2%; TRPV1 potentiator: -8.1; gsp antag: -11.3%; Menin MLL FP FL: 1.1

Results for CCCCC(=O)Nc1ccc(C(=O)NNC(=S)NC(=O)c2ccco2)cc1 ?
ClpP mod: 2.3%; D2 PAM: -6.4; Sfp inh: 5.0%; gsp ag: 17.9%; TRPV1 potentiator: 5.2; gsp antag: -10.7%; Menin MLL FP FL: 3.2

What do the screens show for `O=C(CC(C(=O)O)C1CCCO1)NCc1ccccc1` (stereo not given)?
ClpP mod: 0.2%; D2 PAM: -4.9; Sfp inh: 2.3%; gsp ag: 9.5%; TRPV1 potentiator: -1.1; gsp antag: 0.1%; Menin MLL FP FL: -5.1

What do the screens show for `O=C(O)C1CN(c2nc(Cl)ccc2[N+](=O)[O-])C1`?
D2 PAM: -3.6; Sfp inh: 17.4%; gsp ag: -0.6%[15.4 µM]; TRPV1 potentiator: -4.4; gsp antag: 2.5%; Menin MLL FP FL: -2.1

Results for O=C(NCCc1ccccn1)C1CCCN(S(=O)(=O)Cc2ccccc2)C1 (stereo not given) ?
ClpP mod: -1.4%; D2 PAM: 6.0; Sfp inh: 20.6%; gsp ag: 10.5%; TRPV1 potentiator: inconclusive; gsp antag: 4.4%; Menin MLL FP FL: -0.1

What do the screens show for `CCOC(=O)Cc1nnc(NC(=O)CSc2ccccc2)s1`?
ClpP mod: -3.8%; D2 PAM: -9.2; Sfp inh: 5.7%; gsp ag: 29.0%; TRPV1 potentiator: 10.3; gsp antag: 2.9%; Menin MLL FP FL: -0.7

Results for Cc1cc(C)n(-c2cc(C)c(C)cc2Br)n1 ?
ClpP mod: 1.1%; D2 PAM: -10.5; Sfp inh: -9.2%; gsp ag: -29.5%; TRPV1 potentiator: -10.6; gsp antag: 11.8%; Menin MLL FP FL: -10.6

What do the screens show for `COc1ccc(-n2nc(C(=O)NCC(=O)Nc3cc(OC)ccc3OC)c3ccccc3c2=O)cc1`?
D2 PAM: -3.2; Sfp inh: 3.3%; gsp ag: 4.9%[15.4 µM]; TRPV1 potentiator: -1.5; gsp antag: -9.3%; Menin MLL FP FL: 19.6

What do the screens show for `CCCC(C)NC(=O)c1cc(Cl)ccc1OC` (stereo not given)?
ClpP mod: 1.2%; D2 PAM: -9.7; Sfp inh: -4.6%; gsp ag: -21.6%; TRPV1 potentiator: -6.3; gsp antag: -6.6%; Menin MLL FP FL: 0.1

How did N/C(=N\OS(=O)(=O)c1ccc(Br)cc1)c1ccncc1 do in these assays?
ClpP mod: 3.2%; D2 PAM: 95.3*; Sfp inh: 17.3%; gsp ag: 0.5%; TRPV1 potentiator: -2.0; gsp antag: 7.6%; Menin MLL FP FL: -0.4

What do the screens show for `C/C(=N\Nc1nc2ccccc2s1)c1ccc(Br)s1`?
D2 PAM: -2.1; Sfp inh: 9.1%; gsp ag: -7.8%[15.4 µM]; TRPV1 potentiator: -7.9; gsp antag: 11.9%; Menin MLL FP FL: -1.0

What do the screens show for `O=C(N/N=C/c1ccncc1)C1CC1(c1ccccc1)c1ccccc1` (stereo not given)?
ClpP mod: 1.3%; D2 PAM: -16.1; Sfp inh: 3.0%; gsp ag: -9.5%[15.4 µM]; TRPV1 potentiator: -4.3; gsp antag: -13.0%; Menin MLL FP FL: -2.3

What do the screens show for `O=c1c(Cl)c(NCCCO)cnn1-c1nc2ccccc2[nH]1`?
ClpP mod: -6.4%; D2 PAM: -17.3; Sfp inh: 12.3%; gsp ag: -14.0%; TRPV1 potentiator: -4.3; gsp antag: inconclusive; Menin MLL FP FL: -0.3

Results for O=C(COC(=O)COc1ccccc1[N+](=O)[O-])NCc1ccc2c(c1)OCO2 ?
ClpP mod: -0.3%; D2 PAM: -0.1; gsp ag: 0.8%; gsp antag: -5.8%

How did Cc1ccc(C)c(S(=O)(=O)N2CCCC2CNC(=O)C(=O)NC2CCCC2)c1 (stereo not given) do in these assays?
ClpP mod: -0.8%; D2 PAM: -17.0; gsp ag: -56.8%[inhibitor]; TRPV1 potentiator: 5.3; gsp antag: -4.7%

What do the screens show for `CN(CC(=O)Nc1ccc(F)c(F)c1F)C(=O)c1ccc(-n2cncn2)cc1`?
ClpP mod: -0.6%; D2 PAM: -3.0; gsp ag: 6.2%; TRPV1 potentiator: 7.2; gsp antag: 2.2%

How did CC1=CC(C)(C)Nc2ccc(OC(=O)C(C)N3C(=O)c4ccccc4C3=O)cc21 (stereo not given) do in these assays?
ClpP mod: 3.5%; D2 PAM: 25.4; Sfp inh: 3.1%; gsp ag: -29.0%; TRPV1 potentiator: 29.9; gsp antag: -23.0%; Menin MLL FP FL: 1.0

Results for COc1ccc(N2CCN(C3CC(=O)NC3=O)CC2)cc1 (stereo not given) ?
ClpP mod: -0.4%; D2 PAM: -1.1; Sfp inh: 8.2%; gsp ag: inconclusive; TRPV1 potentiator: -14.5; gsp antag: 3.3%; Menin MLL FP FL: -0.2

What do the screens show for `COc1cc2c(cc1OC)C(Cc1ccccc1[N+](=O)[O-])=NCC2`?
ClpP mod: -7.8%; D2 PAM: -15.0; gsp ag: -29.3%; gsp antag: -9.0%

What do the screens show for `O=C(OCC(=O)C12CC3CC(CC(C3)C1)C2)c1ccccn1`?
ClpP mod: -2.5%; D2 PAM: -2.3; Sfp inh: 0.9%; gsp ag: 26.8%; TRPV1 potentiator: -11.7; gsp antag: 7.8%

What do the screens show for `COC(=O)c1cc(NC(=O)c2cccnc2)ccc1N1CCOCC1`?
ClpP mod: 0.9%; D2 PAM: 3.5; Sfp inh: 9.3%; gsp ag: -9.3%[15.4 µM]; TRPV1 potentiator: 1.9; gsp antag: 10.8%; Menin MLL FP FL: 1.3

How did O=S(=O)(Nc1cccnc1Cl)c1ccc(F)cc1 do in these assays?
D2 PAM: -4.4; Sfp inh: 5.2%; gsp ag: 22.5%; TRPV1 potentiator: 5.4; gsp antag: -6.0%; Menin MLL FP FL: 2.7

What do the screens show for `Cc1cccc(NC(=S)NCC(c2cccnc2)N(C)C)c1` (stereo not given)?
ClpP mod: -0.8%; D2 PAM: -15.1; Sfp inh: -9.3%; gsp ag: 13.1%; TRPV1 potentiator: 11.3; gsp antag: 15.3%; Menin MLL FP FL: -0.3
